GIV-Gai inh = inhibitors of GIV peptide binding to Galpha-i3, primary screen, biochemical, fluorescence polarization, FITC-GIV GBA peptide, rat Galphai3. percent of control (FP), % (test concentration not listed). 90 min; hits give low values; scaled: aluminum fluoride 0%, vehicle 100%. 210,000 compounds, 0.42% hits. Guanine nucleotide-binding protein G(i) subunit alpha-3 (Rattus norvegicus), P08753;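 active = replicate mean at 85% of control or lower, very high polarization wells dropped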;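 note: wells of about 15 µL received 100 nL stock; the first replicate is given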
Target sequence (P08753 whole entry, looked up): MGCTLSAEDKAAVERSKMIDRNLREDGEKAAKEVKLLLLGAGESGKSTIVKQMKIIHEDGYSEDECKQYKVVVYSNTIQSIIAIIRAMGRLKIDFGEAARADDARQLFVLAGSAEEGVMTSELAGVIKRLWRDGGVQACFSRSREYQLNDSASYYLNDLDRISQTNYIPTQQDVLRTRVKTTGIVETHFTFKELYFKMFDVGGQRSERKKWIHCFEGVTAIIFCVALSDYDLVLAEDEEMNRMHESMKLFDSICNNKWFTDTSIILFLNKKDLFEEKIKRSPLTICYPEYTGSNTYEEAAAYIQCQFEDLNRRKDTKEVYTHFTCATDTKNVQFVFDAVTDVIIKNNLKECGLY
* = called active by the depositor. An excerpt, so the mix of outcomes need not match the whole.

Compound	GIV-Gai inh
O=S(=O)(c1cccn2c(SCc3cccc(F)c3)nnc12)N1CCc2ccccc2C1	101
Cc1nn(-c2nc3ccccc3n2C)c2c1C(c1cccc(F)c1)CC(=O)N2 (stereo not given)	103
O=C(Nc1ccc2c(c1)OCCO2)N1CCN(Cc2nc3cccnc3n2-c2cccc(F)c2)CC1	109
Cc1ccc(NC(=O)CCCNC(=O)Cn2cnc3sc4c(c3c2=O)CCCC4)c(Br)c1	102
Clc1c2ccccc2c(-c2nc(-c3ccc(Br)cc3)c(-c3ccc(Br)cc3)[nH]2)c2ccccc12	104
CCN1CCN(C(=O)C2(c3ccccc3F)CC2)CC1	102
COc1ccc(-c2nn(CN3CCC4(CC3)OCCO4)c(=S)n2-c2ccccc2)cc1	106
CCOc1ccc(C2(O)CN(c3cc(C)ccc3C)C3=[N+]2CCCC3)cc1 (stereo not given)	116
Cc1cc2c(cc1C)N(C(=O)COc1ccc(Cl)cc1)C(C)(C)c1ssc(=S)c1-2	122
Cc1cc(C)cc(N2C=C(C(=O)N3CCCC3)S(=O)(=O)c3ccccc32)c1	97
N#CCSc1sc(=S)sc1SCC#N	108
O=C1NC(c2ccc(Cl)cc2)Sc2ccccc21 (stereo not given)	100
O=C(c1ccc2c(c1)OCO2)N1CCC(Nc2ncnc3c2CCC3)C1 (stereo not given)	101
O=S(=O)(Nc1ccc2oc3c(c2c1)CCCC3)c1ccccc1	105
Cc1sc2c(=O)n3c(nc2c1C(=O)NCCc1ccccc1)CCCCC3	105
Cc1ccc(OC2(c3ccccc3)OC(=O)c3ccccc32)c(C)c1 (stereo not given)	111
Cc1sc(-c2cc(C(F)(F)F)on2)cc1S(=O)(=O)Nc1ccc(F)cc1	99
Cc1nc2cc(C(=O)NCc3ccc4c(c3)OCO4)ccc2n1-c1ccc(Br)cc1	108
CCCCOc1ccc(C2C(N3C(=O)c4ccccc4C3=O)C(=O)N2c2ccc(Cl)cc2)cc1 (stereo not given)	108
Cn1c(CNC(=O)c2cc3c(s2)CN(C2CC2)C3)nc2ccccc21	105
COc1cc(/C=c2/sc3nc(-c4ccccc4)c(-c4ccccc4)n3c2=O)ccc1OCC(=O)O	109
Cc1nn(CC(=O)N2CCCC2)c(C)c1S(=O)(=O)N1CCCC(C(=O)Nc2ccc(F)cc2)C1 (stereo not given)	103
COC(=O)C1=C(C)NC(C)=C(C(=O)OC)C1c1cn(-c2ccccc2)nc1-c1ccc(S(=O)(=O)N2CCOCC2)cc1	106
CCOC(=O)C1=C(N)n2c(s/c(=C\c3ccncc3)c2=O)=C(C#N)C1c1ccncc1 (stereo not given)	108

Among those listed so far, these have fluorine:
Compound	GIV-Gai inh
O=S(=O)(c1cccn2c(SCc3cccc(F)c3)nnc12)N1CCc2ccccc2C1	101
Cc1nn(-c2nc3ccccc3n2C)c2c1C(c1cccc(F)c1)CC(=O)N2 (stereo not given)	103
O=C(Nc1ccc2c(c1)OCCO2)N1CCN(Cc2nc3cccnc3n2-c2cccc(F)c2)CC1	109
CCN1CCN(C(=O)C2(c3ccccc3F)CC2)CC1	102
Cc1sc(-c2cc(C(F)(F)F)on2)cc1S(=O)(=O)Nc1ccc(F)cc1	99
Cc1nn(CC(=O)N2CCCC2)c(C)c1S(=O)(=O)N1CCCC(C(=O)Nc2ccc(F)cc2)C1 (stereo not given)	103

(listing goes on)
Compound	GIV-Gai inh
CCCCOC(=O)C1=C(C)NC2(O)c3ccccc3C(=O)C12O (stereo not given)	109
CC(=O)CSC1=C(C#N)C(c2sccc2C)C(C(C)=O)=C(C)N1 (stereo not given)	103
CCCCNc1cc(-n2nc(C)cc2C)ncn1	106
COc1ccc(CNC(=O)c2nnn(Cc3nc(-c4ccccc4)oc3C)c2N)cc1OC	105
Cc1ccc(/C=c2/sc3n(c2=O)C(N)=C(C#N)C(c2ccc(C)cc2)C=3C#N)cc1 (stereo not given)	109
CCOc1ccccc1N/C(SCc1ccccc1Cl)=C(/C#N)C(=O)NCc1cccs1	104
O=C(N/N=C\c1ccccc1OS(=O)(=O)c1ccccc1[N+](=O)[O-])C1(C(=O)N/N=C/c2ccccc2OS(=O)(=O)c2ccccc2[N+](=O)[O-])CCC1	102
Cc1ccc(C(=O)N/C(=C/c2cccc([N+](=O)[O-])c2)C(=O)NCc2ccco2)cc1	104
O=CN/C(=C(/Cl)SCc1ccccc1)[P+](c1ccccc1)(c1ccccc1)c1ccccc1	109
CN1CCN(c2ncnc3scc(-c4ccc(-c5ccccc5)cc4)c23)CC1	100
O=C(NCc1nnc2n1CCCC2)c1ccoc1	103
O=C(CSc1nc2sc3c(c2c(=O)n1-c1ccccc1)CCC3)N1CCOCC1	104
O=C1C(=O)N(c2cccc(C(F)(F)F)c2)C(c2ccccc2F)/C1=C(\O)c1ccc(Cl)cc1 (stereo not given)	104
CN(C)C(=O)c1csc2nc(-c3ccc(NC(=O)c4ccc(F)c(Cl)c4)cc3)cn12	104
CC(=O)c1c(C)oc2ccc(N(C(=O)c3ccccc3Cl)S(=O)(=O)c3ccccc3)cc12	115
COC(=O)C1=C(C)NC(SCC(=O)Nc2c(C)cc(C)cc2C)=C(C#N)C1c1ccccc1Cl (stereo not given)	100
O=C1Nc2ccc(S(=O)(=O)Oc3ccc(OCc4ccccc4)cc3)c3cccc1c23	114
Cc1cc(C)c(C#N)c(SCc2nc3cc([N+](=O)[O-])c([N+](=O)[O-])cc3[nH]2)n1	119
Nc1c(C(=O)Nc2ccc(F)cc2)sc2nc3c(c(-c4ccco4)c12)CCCC3	110
Cc1nnc2c(Nc3ccc(I)cc3)nc3nonc3n12	109
COc1cc(/C=C2\C(=O)NC(=S)N(c3ccc(C)cc3)C2=O)cc(Br)c1O	118
COCCCNC(=O)N1CCN(CCn2c(C(F)(F)F)nc3cccnc32)CC1	100
O=C(CSc1nnc2c(=O)n(-c3ccc(F)cc3)ccn12)c1ccc(F)cc1	106
O=c1ccc(-c2ccccc2)nn1CCc1nc(-c2ccccc2Br)no1	100
Cc1ccsc1C1CCCCCN1C(=O)NC1CCCCC1 (stereo not given)	103
COc1ccc(-n2c(-c3ccccc3)cn3c4c(=O)n(C)c(=O)n(C)c4nc23)cc1OC	117
CC(C)(C)NC(=O)c1cn2c(n1)CCCC2	105
CC1CC(C)(C)CC2(C1)NC(=S)N(c1ccccc1)N2 (stereo not given)	111
CCN(CCN(C)C)c1ccc(NC(C)=O)cc1C(=O)O	105
CCOC(=O)c1c(NC(=O)c2c(F)cccc2F)sc2c1CCN(CC)C2	109
CC(=O)C1=NN(c2ccc(Br)cc2)C2(S1)c1ccccc1C(c1ccc(C(C)C)cc1)=NN2c1ccccc1 (stereo not given)	108
O=C(NC1CCCC1)C1CCCN(C(=O)c2ccc(NS(=O)(=O)c3ccc(Cl)cc3)cc2)C1 (stereo not given)	108
COc1cc(C=Nc2c(C)n(C)n(-c3ccccc3)c2=O)ccc1O	109
CCOc1ccc(-n2c(=S)sc3c(=O)n(-c4ccccc4)c(=S)[nH]c32)cc1	110
O=C1N=C(N2CCN(C3=NC(=O)/C(=C/c4cc(Br)ccc4O)S3)CC2)S/C1=C\c1cc(Br)ccc1O	119
CCCCCCCCCCCCN1C(=O)OC2(CCCCC2)C1(C)O (stereo not given)	105
CCCN(CCC)CCCNC(=O)c1cc(Nc2ccc(OC)cc2OC)nc2ccccc12	107
O=C(c1ccc(F)cc1)N1CCc2cc(CNS(=O)(=O)c3ccc(F)c(Cl)c3)ccc21	104
O=C(Cn1ccc2ccc(N3CCOCC3)nc21)N1CCC2(CC1)OCCO2	99
COc1ccc(I)cc1S(=O)(=O)n1nnc2ccccc21	121
C=CCNC(=O)C1CCCN(c2ncnc3c2oc2ccccc23)C1 (stereo not given)	106
O=C1c2cc(OCCOCCO)ccc2-c2ccc(OCCOCCO)cc21	108
CCCCn1c(=S)[nH]c2ncccc2c1=O	99
Cc1nc2nc(-c3cccs3)cn2nc1C	111
O=C(Nc1ccc(Br)cc1F)N1CCN(c2cc(-c3ccc(F)cc3)ncn2)CC1	104
Cc1ccc(C(=O)NCC2COCCO2)cc1NC(=O)c1nsc2ccccc12 (stereo not given)	102
COc1ccccc1N1CCN(C(=O)c2cccc(N3C(=O)C4C5C=CC(C5)C4C3=O)c2)CC1 (stereo not given)	102
CCOC(=O)COc1ccc(/C=c2/sc3nc4cc(C)c(C)cc4n3c2=O)cc1OC	108

The list continues:
molecule	GIV-Gai inh
O=C(Cn1c(=O)n2nc(-c3ccc(F)cc3)nc2c2ccccc21)c1cccc(Cl)c1	102
CCOCCCNC(=O)Cn1c(=O)c(=O)n(CC)c2ncccc21	100
O=C(Nc1ccccc1)c1cccc(-c2cc(N3CCCC3)ncn2)c1	104
Cn1c(SCC(=O)c2ccc3c(c2)OCCO3)nnc1-c1ccc2c(c1)OCCCO2	101
O=C1c2ccccc2C(=O)c2cc(S(=O)(=O)NCCCCc3ccccc3)ccc21	103
O=C(NNc1cccc(Cl)c1)C(c1ccccc1)c1ccccc1	115
O=C(Cn1cc(-c2nc(-c3ccc(Cl)cc3)no2)ccc1=O)NC1CCCCC1	103
COc1ccc(CCNC(=O)CCn2c(SCC(=O)c3ccc(O)c(O)c3)nc3ccccc3c2=O)cc1OC	106
CCOC(=O)c1c(CSc2cccs2)n(C)c2cc(Br)c(O)c(CN(C)C)c12	105
CCOC(=O)c1ccc(Cn2c3ccc(Br)cc3c3nc4cc(C)c(C)cc4nc32)o1	105
COC(=O)c1ccc(C2Oc3ccc(Cl)cc3C3CC(c4cccc(OC)c4)=NN32)cc1 (stereo not given)	107
O=C(c1cc(S(=O)(=O)N2CCc3ccccc32)ccc1F)N1CC(=O)N(CCc2ccccc2)C(=O)C1	106
CC1CCN(C(=O)Cc2nn(C)c(=O)c3ccccc23)CC1	114
CC1(c2ccccc2)CC(c2ccccc2)=Nc2ccccc2N1 (stereo not given)	115
Cc1noc(C)c1C1CCCN1C(=O)Cn1cc(Cl)cn1 (stereo not given)	102
CCOC(=O)c1c(NC(=O)CSc2nnc(CNC(=O)c3ccc(OC)cc3)n2C)sc2c1CCCC2	181

Ordered by molar mass (rising): 5 of the compounds above
molecule	GIV-Gai inh
CC1CCN(C(=O)Cc2nn(C)c(=O)c3ccccc23)CC1	114
CC1(c2ccccc2)CC(c2ccccc2)=Nc2ccccc2N1 (stereo not given)	115
COC(=O)c1ccc(C2Oc3ccc(Cl)cc3C3CC(c4cccc(OC)c4)=NN32)cc1 (stereo not given)	107
CCOC(=O)c1ccc(Cn2c3ccc(Br)cc3c3nc4cc(C)c(C)cc4nc32)o1	105
O=C(c1cc(S(=O)(=O)N2CCc3ccccc32)ccc1F)N1CC(=O)N(CCc2ccccc2)C(=O)C1	106

Remaining list, next part:
molecule	GIV-Gai inh
Cc1cc2c(cc1C)N(C(=O)C1CC1)C(C)(C)c1ssc(=S)c1-2	107
Cc1ccc(Nc2nc(NCCN3CCOCC3)nc3c2cnn3-c2ccccc2)cc1	95
O=C1CC(c2ccc(I)cc2)c2ccc3ccccc3c2N1 (stereo not given)	112
CCC(=O)Nc1cccnc1-c1ccc(C(=O)NC(C)CCc2ccccc2)cc1 (stereo not given)	108
COc1ccc(S(=O)(=O)N2CCc3nc(NC(=O)c4cnccn4)sc3C2)cc1	106
O=C(NCc1ccc(Br)cc1)c1ccc(-c2cccc(F)c2)nc1	107
COc1ccc(NC(=O)Cn2cnc3sc(C(=O)Nc4cccc(Cl)c4)c(C)c3c2=O)c(OC)c1	103
CCCCn1c(=O)nc2n(-c3ccccc3C)c3ccccc3cc-2c1=O	108
O=C(Nc1ccc(-c2nc3ccccc3s2)cc1)c1ccc2c(c1)OCCO2	110
COC(=O)C1=NNC2(c3cccc([N+](=O)[O-])c3)C(=O)N(c3ccccc3)C(=O)C12 (stereo not given)	106
COc1cc(NC(=O)COC(=O)CC2(CC3=NS(=O)(=O)c4ccccc4N3)CCCC2)cc(OC)c1	97
CCOC(=O)C1=C(C)OC(N)=C(C#N)C1c1cc(OC)ccc1OC (stereo not given)	112
CN(CC1COCCO1)c1ccc(NC(=O)c2ccccc2Cl)cc1C(=O)O (stereo not given)	108
CCOc1ccc(C2C(C#N)=C(SCc3ccc(Cl)cc3)NC(=O)C2C(=O)OC)cc1 (stereo not given)	111
CCOC(=O)C1=NNC2C(=O)N(c3ccc(C)cc3C)C(=O)C12 (stereo not given)	118
CCCN1CCc2c(sc(NC(=O)c3ccc(S(=O)(=O)N4CCOCC4)cc3)c2C(=O)OC)C1	196
O=S(=O)(c1cn(Cc2noc(-c3cccc(Cl)c3)n2)cn1)N1CCCCC1	104
COc1ccc2c(c1)N(C(=O)CN1C(=O)c3ccccc3C1=O)C(C)(C)c1ssc(=S)c1-2	109
CCCNC(=O)c1ccc2c(c1)nc1n2CCOC1	101
COc1ccc(Cl)cc1S(=O)(=O)Cc1nc(-c2ccc3c(c2)OCO3)no1	101
CCc1nc(N2CCC(C(=O)N3CCC4(CC3)OCCO4)CC2)c2c(C)scc2n1	107
O=C(Oc1ccc(Br)cc1C1NC(=O)c2c(sc3c2CCCC3)N1)c1ccccc1 (stereo not given)	104
COc1cc(NC(=O)CCc2c(C)nn(-c3ccc4nncn4n3)c2C)cc(OC)c1	99
O=C(CSc1nnc2c(=O)n(-c3ccccc3)ccn12)c1c[nH]c2ccccc12	115
O=C(Nc1ccsc1-c1nnc(C2CC2)o1)c1ccsc1	102
CCn1c(SCC(=O)O)nc2c(=O)n(C)c(=O)n(C)c21	102
CCOc1cc(/C=C2/C(=N)N3C(c4ccccc4)=CSC3=NC2=O)ccc1OCCOc1ccccc1OC	106
Cc1cc(C(=O)N2CCCC2c2cc(C(C)C)no2)no1 (stereo not given)	97
COc1ccc(C(=O)Nc2ccc(-c3ccc4ccccc4n3)cc2)cc1	102
CCOc1ccccc1NC(=O)c1cc([N+](=O)[O-])ccc1N1CCN(C(c2ccccc2)c2ccccc2)CC1	116

Assay outcomes from PubChem BioAssay.
